# TRPML1 ag = activates the human TRPML1 channel; Q9GZU1; TRPML1-expressing cells, Ca2+ dye fluorescence, FDSS; host cell line not named in the record; reference of the full effect not given here; 0.12% of 410,000 active; activation, % (concentration not given with the values); in the data active = activation above about 50%; inconclusive = about 30% to 50%; inactive = below about 30%; further: 0% is about no effect; the text of the record puts the active cut at 80%
# Target sequence (Q9GZU1 whole entry, looked up): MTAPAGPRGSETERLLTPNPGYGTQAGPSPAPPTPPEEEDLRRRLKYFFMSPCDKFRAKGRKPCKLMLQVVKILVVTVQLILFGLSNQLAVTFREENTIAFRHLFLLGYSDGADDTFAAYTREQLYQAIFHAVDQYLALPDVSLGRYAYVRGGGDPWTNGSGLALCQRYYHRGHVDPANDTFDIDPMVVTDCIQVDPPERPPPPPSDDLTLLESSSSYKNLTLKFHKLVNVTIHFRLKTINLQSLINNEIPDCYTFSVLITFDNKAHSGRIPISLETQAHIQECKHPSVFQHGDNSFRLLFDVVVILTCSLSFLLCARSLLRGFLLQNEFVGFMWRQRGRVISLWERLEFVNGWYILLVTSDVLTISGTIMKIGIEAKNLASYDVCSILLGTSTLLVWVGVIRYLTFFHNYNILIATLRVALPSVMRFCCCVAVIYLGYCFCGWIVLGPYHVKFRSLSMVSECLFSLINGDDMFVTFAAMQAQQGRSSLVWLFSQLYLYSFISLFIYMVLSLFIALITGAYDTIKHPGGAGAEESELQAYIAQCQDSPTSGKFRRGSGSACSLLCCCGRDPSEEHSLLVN
#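 Tet-induced TRPML1-DL cells, 1,500 per well, cultured overnight, were loaded with a no-wash Ca2+ dye for 45–90 min. Calcium fluorescence was recorded on the FDSS for 110 s after compound addition, before the EC80 agonist (4 uM 54-4) was added.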
# ClpP mod = qHTS Assay for Activators of ClpP | purified B. subtilis ClpP, FRET peptide cleavage, 20 min | Potency, µM (top dose mostly 57.5 µM), inactives show at the top dose activity change, negative = active | 1.9% of 340,000 active | AID 651965, 2013; active = well fitted falling curve with a large enough effect; inconclusive = small, poorly fitted or top-dose-only effect; inactive = no such curve, though single readings can be large or run the other way; further: potency means the concentration at half of the fitted maximal effect; the source files actives as falling curves though it sought activators and does not explain the sign; nearly all actives have a fitted effect of over 65% in size; many hits overshoot -100%
# Target sequence (P80244 whole entry, looked up): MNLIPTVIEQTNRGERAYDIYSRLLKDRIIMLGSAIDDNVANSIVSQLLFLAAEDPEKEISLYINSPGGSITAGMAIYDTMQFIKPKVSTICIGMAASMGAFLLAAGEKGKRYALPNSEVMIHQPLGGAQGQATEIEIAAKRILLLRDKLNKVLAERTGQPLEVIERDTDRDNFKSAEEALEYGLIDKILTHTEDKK
#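 Purified B. subtilis ClpP, 10 microg/mL final in Tris/HCl pH8 with KCl, BSA, glycerol and Tween-20, cleaved an Abz/nitrotyrosine-quenched decapeptide. Fluorescence (ex 320, em 430) was read at 0 and 20 min at room temperature. Delta was normalized to 5.8 microM ADEP and DMSO/no-enzyme controls.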
# gsp antag = antagonists of gsp mutant (McCune-Albright syndrome); gsp-mutant cells, cAMP HTRF, 30 min; control for the full effect not named in the record; Potency, µM (highest dose often 76.9 µM), inactives show at the highest dose activity change, negative = inhibition, most hits filed as inhibitors; 0.4% of 340,000 active; active = falling curve of any shape with a large fitted effect; inconclusive = falling curve, mostly with a smaller effect; inactive = flat or rising curve; cell line not stated here;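 further: intracellular cAMP measured with PDE inhibitor Ro 20-1724 present during compound exposure; potency means the concentration at half of the fitted maximal effect; on the % scale 0 is the no-effect control and ±100 the full control effect; nearly all actives have a fitted effect of over 65% in size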
#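 Measurement of cellular cAMP by homogeneous time-resolved fluorescence following a 30 min compound exposure at 37C. The PDE inhibitor […] was present throughout; the assay buffer was DPBS with 0.05% BSA and 0.005% Tween 20.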
# TRPML1 inh = human mucolipin-1 channel inhibition; Q9GZU1; TRPML1-inducible cells, Ca2+ dye fluorescence, FDSS; stronger effect = lower value; inhibition of EC80 agonist-evoked calcium signal; activity change, negative = inhibition, % (concentration not given with the values); 0.02% of 390,000 active; AID 624415; in the data active means activity change below about -50%; inconclusive means about -30% to -50%; inactive means above about -30%;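 further: stimulus is agonist 54-4 at its EC80 concentration; on the % scale 0 is the no-effect control and ±100 the full control effect; compound concentration not given in the record; the text of the record puts the active cut at -80%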
#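 Tet-induced TRPML1-DL cells loaded with Ca8 no-wash calcium dye were read kinetically on FDSS. Compound addition was followed by EC80 agonist 54-4 (4 uM final); inhibition was read over 110 s.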
# gsp ag = agonists of gsp mutant (McCune-Albright syndrome). gsp mutant cells, cAMP HTRF, 30 min; control for the full effect not named in the record. Potency, µM (top dose mostly 76.9 µM), for the others: at the top dose activation (cAMP increase), usual class: activators. 0.13% of 340,000 active. AID 624287; active = well fitted activation curve with a large enough effect; inconclusive = small, poorly fitted or top-dose-only effect, or another doubt; inactive = no such curve, though single readings can be large or run the other way; cell line not stated here;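 further: phosphodiesterase inhibitor Ro 20-1724 added with compounds to block cAMP breakdown; potency means the concentration at half of the fitted maximal effect; nearly all actives have a fitted effect of over 60% in size; about a fifth of the inactives were tested at one dose only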
#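 Cells in DMEM/10% FBS with G418 were pretreated with compounds in DMSO plus […] (300 uM stock) for 30 min at 37C. cAMP was measured by HTRF (cAMP-d2 plus anti-cAMP antibody-K) after 30 min at room temperature.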
# Menin MLL FP FL = displaces fluorescein MLL peptide from human menin; Fluorescence polarization, fluorescein-MLL peptide displacement from menin; 290,000 tested, under 10 active; FP activity change, % at 61.4 µM; inconclusive = falling polarisation curve, or a change in total fluorescence; inactive = total fluorescence flat and polarisation flat or rising; no compound was filed as active; the % refers to the polarisation; negative = inhibition;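 further: % of control where 0% means no effect; inhibitors lower the polarisation; unlabelled MLL peptide was the positive control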
# * marks the source's active call; other numbers are inactive results; ? = inconclusive; / = no result given; [ ] = another dose, or the depositor's remark. Not a hit list, and some 2.1% of all compounds hit somewhere here.
SMILES,TRPML1 ag,ClpP mod,gsp antag,TRPML1 inh,gsp ag,Menin MLL FP FL
COc1ccc2[nH]c(=O)c(CN(Cc3ccco3)C(=O)c3ccccc3)cc2c1,1.0,?,3.2%,-29.0,3.8%,2.1
N/C(=N\OC(=O)/C=C/c1ccccc1Cl)c1cccnc1,0.0,/,-4.7%,4.1,1.8%[15.4 µM],2.2
O=C1C2=C(Nc3ccccc3SC2c2ccco2)c2ccccc21 (stereo not drawn),-0.3,-1.7%,-4.5%,10.5,-27.5%,1.6
Cc1cccc(N2CC(C(=O)Nc3cccc(S(=O)(=O)N4CCCCC4)c3)CC2=O)c1C (stereo not drawn),0.5,-1.4%,?,-11.5,-20.1%,/
O=[N+]([O-])c1ccc(-c2c(O)c3ccccc3c3nc4ccccc4nc23)cc1,3.0,0.4%,5.7%,-11.3,-7.1%,-5.3
COc1ccc(N2CCN(CC(=O)N3CCC(C)CC3)CC2)cc1,-0.7,-12.4%,-8.3%,-18.9,-59.1%[inhibitor],2.2
O=C(Nc1ccsc1C(=O)O)c1ccc(Cl)cc1,-0.8,1.4%,?,27.6,-1.8%[15.4 µM],0.5
COc1cc(/C=N/NC(=O)c2ccc(F)cc2)ccc1OC(=O)c1ccco1,-0.5,-2.9%,-1.4%,0.3,6.0%,8.1
CC(=O)N1CCCc2ccc(NS(=O)(=O)c3ccc(C)cc3)cc21,1.9,1.3%,-12.4%,-1.5,-34.8%,/
C=CCS/C(=N\n1cnc2ccccc2c1=O)N(CC)CC,-1.3,-2.7%,9.0%,7.1,24.8%,-5.5
NS(=O)(=O)c1ccc(CCNC(=O)NC2(C(F)(F)F)Oc3ccccc3O2)cc1,1.7,-1.9%,-6.7%,-16.1,-19.0%,-0.8
COC(=O)CC1COc2ccccc2N1C(=O)c1ccc(Cl)cc1 (stereo not drawn),-0.3,-0.7%,3.4%,16.6,-44.5%[inhibitor],5.5
COc1ccc2c(CC(=O)NC(Cc3ccc(Cl)cc3)C(=O)O)cc(=O)oc2c1C (stereo not drawn),-0.7,3.0%,0.6%,7.9,-33.9%[inhibitor],0.1
Cc1ccc(NC(=O)CNC(=O)c2cccc(Cl)c2)nc1,-0.2,-3.0%,1.4%,18.2,11.8%[15.4 µM],/
O=C(C1CC(=O)N(c2ccc(Br)cc2)C1)N1CCCC1 (stereo not drawn),-0.3,0.6%,2.5%,-2.2,0.8%,/
CCCCN(CC)C(=O)c1cc2c(=O)n3cccc(C)c3nc2n1C,-0.6,4.5%,/,-14.9,/,/
COc1ccc(NC(=O)c2cnc(C)cn2)cc1-n1cnnn1,0.2,-4.5%,8.3%,28.0,6.0%,2.5
O=[N+]([O-])c1ccc(-c2ncc(-c3ccc(Br)cc3)o2)cc1,0.0,/,-0.3%,-13.1,21.2%[15.4 µM],?
O=C(Nc1ncc(Cc2ccc(C(F)(F)F)cc2)s1)c1ccc(-c2cccc([N+](=O)[O-])c2)o1,0.3,-0.7%,9.5%,-26.5,12.7%,7.5
O=C(O)C(c1ccccc1)N1C(=O)/C(=C\c2ccc(-c3ccccc3Cl)o2)SC1=S (stereo not drawn),1.8,-1.4%,-10.8%,-5.1,13.3%[15.4 µM],?
CC(=O)Nc1ccc(S(=O)(=O)n2nc(-c3ccc(C)cc3)nc2N)cc1,-0.4,2.2%,8.2%,4.0,-18.2%,-1.6
Cn1c(=O)n(C)c2cc(NC(=O)CCl)ccc21,-0.8,2.9%,0.1%,-1.3,-0.2%,5.5
Cc1ccc(C(=O)c2c[nH]c(C(=O)NCc3cccnc3)c2)cc1,0.4,0.6%,?,7.3,?,2.8
O=C(NCc1ccco1)c1ccccc1NS(=O)(=O)c1ccc(Cl)s1,7.1,-2.3%,?,13.8,-9.6%,3.3
COc1ccc(N=Cc2c(O)n(-c3cccc(C)n3)c(=O)c3ccccc23)cc1,1.4,0.2%,-6.3%,-11.9,-2.8%,3.5
# (cont.)
SMILES,TRPML1 ag,ClpP mod,gsp antag,TRPML1 inh,gsp ag,Menin MLL FP FL
O=C(NCC(=O)N1CCCCCCC1)c1ccc(Br)o1,1.3,1.1%,13.4%,-5.5,-0.4%[15.4 µM],/
NC(=O)COC(=O)CC(NC(N)=O)c1ccc(Cl)cc1 (stereo not drawn),-0.5,-19.5%,15.4%,-9.2,-99.5%[inhibitor],0.4
Cc1ccc(-c2nn3c(C)nnc3s2)cc1NC(=O)C(C)C,0.8,-10.1%,0.4%,18.3,11.7%,4.4
CCc1ccccc1NC(=O)Nc1ccc(F)cc1,0.4,/,-4.4%,3.6,0.2%,0.2
Cc1cccc(C(=O)c2c(N)sc3c2CCCC3)c1,1.8,-0.4%,-14.5%,-1.3,-2.3%,14.4
Cc1nc2ccc(C(=O)O)cc2c2c1CC(C)S2 (stereo not drawn),-0.6,80.8%,-3.7%,-2.2,25.1%,15.3
COc1ccc(CCNC(=O)CN(C)S(=O)(=O)c2cccs2)cc1OC,0.4,-9.3%,1.0%,6.7,-63.7%[inhibitor],-1.3
CCN1CCN(c2ccc(S(=O)(=O)N3CCCCC3)cc2NC(=O)COc2ccccc2)CC1,-0.5,-4.4%,-2.9%,2.4,-5.1%[15.4 µM],/
Cn1c(CCN2CCN(c3ccccn3)CC2)nc2cc(NC(=O)COc3ccc(Cl)cc3)ccc21,-0.8,0.8%,?,4.7,?,-2.5
COc1c(C)cccc1C(=O)Nc1ccc(N2CCN(C(=O)c3ccccc3C)CC2)cc1,2.4,-3.4%,-24.7%,15.3,-36.4%[inhibitor],/
CCn1cc(C(=O)N(C)c2cc(C)ccc2C)c2cc(OC)c(OC)cc2c1=O,-0.8,-4.6%,/,-8.7,/,/
CSc1cccc(NC(=O)COC(=O)c2ccccn2)c1,-0.5,1.9%,11.8%,-1.1,?,/
Cc1ccc(NC(=O)CSc2nnc(C3COc4ccccc4O3)o2)c(Cl)c1 (stereo not drawn),2.1,-1.4%,2.0%,17.0,?,0.5
CCOc1ccc2nc(NC3=NC(c4ccc(OC)cc4)CC(=O)N3)nc(C)c2c1 (stereo not drawn),1.1,31.6µM*,5.2%,9.6,-5.0%,16.7
C=CCN1C(=O)C(Cc2ccc(OC)cc2)SC1=Nc1ccc(C(=O)O)cc1 (stereo not drawn),1.0,-2.4%,8.0%,7.6,-64.7%,4.9
C=CCN(CC(=O)NCc1ccc(OC)cc1)C(=O)c1csnn1,-0.7,-0.4%,6.3%,-4.8,-29.8%,2.1
C/C=C/c1ccc2c(c1)O[C@H](CN(C)CC1CCOCC1)[C@@H](C)CN([C@H](C)CO)S2(=O)=O,-0.4,1.2%,/,-9.1,-2.8%,/
O=C1N/C(=N\N=C\c2cccs2)SC1Cc1ccc(Cl)c(Cl)c1 (stereo not drawn),1.2,2.1%,8.3%,28.6,-46.0%[inhibitor],-0.2
COc1ccc(OC)c(NC(=S)NCCC(c2ccccc2)c2ccccc2)c1,5.6,-3.5%,-23.9%,27.7,-26.3%,/
CC1CC2C(C(O)CC3(C)C2CCC3(O)C(=O)CO)C2(C)C=CC(=O)C=C12 (stereo not drawn),0.4,/,-16.6%,23.9,-3.6%,/
COc1ccc(CN2CCc3cc(OC)c(OC)cc3C2)cc1O,/,-4.3%,-9.3%,/,/,-1.2
Cc1ccc2c(N)[nH]nc2n1,-0.1,/,-1.2%,-11.7,6.1%[15.4 µM],4.0
CCNc1nnc(-c2ccc(C)cc2)o1,3.5,20µM*,5.6%,-3.4,9.0%,2.8
Cc1onc(-c2ccccc2)c1C(=O)NNC(=S)NC(=O)c1ccc(F)cc1,?,-2.1%,-2.5%,-2.0,-31.3%[inhibitor],6.4
COc1ccc(/C=N/N2CCOCC2)cc1Cn1cc([N+](=O)[O-])cn1,-0.8,-1.1%,-4.7%,5.7,5.6%[15.4 µM],-1.1
# Next part:
SMILES,TRPML1 ag,ClpP mod,gsp antag,TRPML1 inh,gsp ag,Menin MLL FP FL
O=C(/C=C/c1c(Cl)cccc1Cl)n1cccn1,0.9,1.0%,20.3%,-0.8,-25.1%,0.6
CC(NC(=O)Cc1ccc(F)cc1)c1ccccc1 (stereo not drawn),1.0,-1.2%,16.6%,12.9,-42.2%[inhibitor],-2.0
COc1cc2c(cc1OC)-c1cc(Nc3cccc(F)c3)nc(=O)n1CC2,-1.6,-18.8%,4.0%,1.9,6.7%[15.4 µM],3.7
CC(NC(=O)c1ccc(N2CCCC2)c([N+](=O)[O-])c1)c1ccc(S(N)(=O)=O)cc1 (stereo not drawn),0.6,-0.1%,7.1%,6.0,18.1%,/
CC1Cc2nc(SCC(=O)Nc3ccc4c(c3)OCO4)n(CCc3ccccc3)c(=O)c2S1 (stereo not drawn),-0.1,-5.6%,-7.6%,-7.6,-55.2%,-2.2
COc1nc(C)ccc1-c1noc(-c2ccncc2)n1,1.3,-0.8%,13.8%,11.0,-0.2%,1.8
O=C(CC12CC3CC(CC(C3)C1)C2)NC(=S)NCc1ccco1,0.8,0.5%,-18.4%,-0.3,-17.3%,1.1
CCN1CCN(C(=O)CS(=O)(=O)Cc2nc(-c3ccccc3C)oc2C)CC1,0.5,/,2.5%,-0.9,0.0%,-3.8
Cc1sc2ncnc(N3CCC(C(=O)NNC(=O)c4ccccc4Cl)CC3)c2c1C,0.4,-5.1%,-9.5%,7.3,1.4%,/
N#CC1(NC(=O)COC(=O)c2ccc(-c3ccc(O)cc3)cc2)CCCCC1,2.3,4.4%,8.5%,-5.6,4.3%,/
O=C(O)Cn1cc(/C=C/[N+](=O)[O-])c2ccccc21,0.8,/,5.9%,-1.0,2.9%[15.4 µM],-0.7
Cc1ccnc(N2C(=O)c3ccccc3C2Nc2ccccc2Cl)c1 (stereo not drawn),0.3,-0.4%,-6.6%,-3.7,-58.2%[inhibitor],-0.4
COC(C(=O)Nc1ccc(S(=O)(=O)Nc2ccc(C)c(C)c2)cc1)c1ccccc1 (stereo not drawn),2.0,7.1%,-1.8%,-0.4,-0.3%,10.5
CCc1ccc2n(-c3ccc(OC)cc3)c([S-])c(C(=O)Nc3cc(C)cc(C)c3)[n+]2c1,1.5,/,28.8%,23.3,9.6%[15.4 µM],2.6
O=C(Nc1cccnc1Cl)c1cccnc1Cl,-0.1,1.6%,16.3%,17.0,-21.9%,0.1
CC(=O)C1=C(O)C(=O)N(c2ccc(S(=O)(=O)Nc3nccs3)cc2)C1c1ccc([N+](=O)[O-])cc1 (stereo not drawn),0.4,/,-7.1%,-5.8,?,-1.5
Cc1ccc(-c2csc3nc[nH]c(=O)c23)c(C)c1,-0.5,/,-9.1%,-0.8,-4.4%,1.2
CC1CCN(C(=O)c2cnn(-c3ccc(Cl)cc3)c2C2CCN(C(=O)OC(C)(C)C)CC2)CC1,0.1,-2.3%,/,-1.9,/,/
COc1ccccc1OCCSc1nc2ccccc2n1CCO,-0.4,/,16.2%,19.4,-1.7%[15.4 µM],6.0
